Screening results (PubChem)
MT1-MMP act inh = inhibitors of human MT1-MMP activation. P50281. HT1080 RFP-PRO-GFP cells, GFP/RFP ratio fluorescence, overnight; percent of plate control window, DMSO zero. GFP/RFP ratio change, % at 20 µM. 0.061% of 360,000 active. AID 651647;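 active means GFP/RFP ratio change of at least 30% with cell ATP level not reduced by more than half and red fluorescence within 50% of control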; further: strong numbers were not always called active
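Assay system – RFP-PRO-GFP reporter HT1080 cells · Compound dosing – single dose of 20 µM compound, 1% DMSO final · Incubation – overnight compound exposure at 37 °C · Measure – GFP/RFP fluorescence ratio · Benchmarks – DMSO wells and RFP-L50D-GFP cells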
CSC inhib = blocks cancer stem cells; cancer stem cell-like cells viability, luminescence; inhibition, % at 7.5 µM; 1.1% of 300,000 active;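 active means mean at 75% or more and at least half the replicates too; inconclusive means mean and replicates disagree; tested in HMLE shEcad cells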;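 further: 0% = median of negative and 100% = median of positive control wells; the first replicate is given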
eIF4H FP inh = inhibitors of RNA binding by human eIF4H; inhibition, % at 35 µM; Q15056; 0.94% of 290,000 active; eIF4H fluorescence polarization binding assay;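 active means 50% or more with normal probe brightness, or confirmed in later tests; inconclusive means above 50% with abnormal brightness, or retests that disagree; inactive means below 50% or failed in later tests; about a fifth of its hits are not listed in these tables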;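 further: calls also rest on retests at 20 µM and on dose response follow-up; 0% = protein and probe with vehicle and 100% = probe without protein; strong numbers were not always called active; many hits fall short of the cut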
UUG fidelity = modulators of start codon recognition fidelity in yeast; activity score, % at 18.7 µM; S. cerevisiae UUG-firefly luciferase reporter, luminescence/redox ratio; 0.13% of 350,000 active;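 active means replicate mean at a twofold rise or more, about +100% in these data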;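 further: firefly luciferase made from a UUG start codon reports start codon fidelity; reporter light over untreated wells divided by growth signal over untreated wells; some hits fall short of that in this replicate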
HIV Env fusion = inhibitors of HIV Env-mediated cell fusion; HeLa-JRFL Env/CEM21 cell fusion, luciferase; inhibition, % at 12.3 µM; 1.1% of 360,000 active;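 active means mean replicate inhibition score of at least 50 and every replicate individually at or above 50; inconclusive means only one of the two criteria met; inactive means mean below 50 and not all replicates reaching 50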;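 further: 0% = plate neutral controls and 100% = maraviroc near 300 nM; one replicate is shown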
Rce1 inh = inhibitors of yeast Ras-converting enzyme | yeast membranes, quenched prenylated peptide cleavage fluorescence | calls only | 0.27% of 290,000 active | AID 2563;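 active means fall in fluorescence gain of 50% or more versus controls, with final raw signal at or below 3038400; inconclusive means same 50% fall but final raw signal above 3038400; inactive means fall in fluorescence gain under 50%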;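 further: plate controls were neutral control wells for no effect and wells lacking membranes for full effect; tested at 10 µM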
Target sequence (Q03530 whole entry, looked up): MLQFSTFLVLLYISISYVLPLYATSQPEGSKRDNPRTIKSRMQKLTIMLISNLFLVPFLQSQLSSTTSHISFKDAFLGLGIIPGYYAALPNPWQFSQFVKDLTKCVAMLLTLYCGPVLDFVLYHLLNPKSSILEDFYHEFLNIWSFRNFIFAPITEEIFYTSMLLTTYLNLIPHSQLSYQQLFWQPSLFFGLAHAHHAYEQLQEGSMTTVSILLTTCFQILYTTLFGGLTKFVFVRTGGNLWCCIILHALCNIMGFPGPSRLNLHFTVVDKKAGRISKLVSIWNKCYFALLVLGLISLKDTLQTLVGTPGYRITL
PABP FP inh = PABP-poly(A) binding inhibition; 1% of 290,000 active; P11940; PABP-poly(A) RNA binding, fluorescence polarization; AID 2014; inhibition, % at 35 µM;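 active means 50% or more with normal probe brightness, or confirmed in later tests; inconclusive means above 50% with abnormal brightness, or retests that disagree; inactive means below 50% or failed in later tests; about a fifth of its hits are not listed in these tables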;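 further: calls also rest on retests at 20 µM and on dose response follow-up; controls were probe without protein and protein plus probe with vehicle; some compounds called inactive have numbers as strong as hits; many hits fall short of the cut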
Target sequence (P11940 whole entry, looked up): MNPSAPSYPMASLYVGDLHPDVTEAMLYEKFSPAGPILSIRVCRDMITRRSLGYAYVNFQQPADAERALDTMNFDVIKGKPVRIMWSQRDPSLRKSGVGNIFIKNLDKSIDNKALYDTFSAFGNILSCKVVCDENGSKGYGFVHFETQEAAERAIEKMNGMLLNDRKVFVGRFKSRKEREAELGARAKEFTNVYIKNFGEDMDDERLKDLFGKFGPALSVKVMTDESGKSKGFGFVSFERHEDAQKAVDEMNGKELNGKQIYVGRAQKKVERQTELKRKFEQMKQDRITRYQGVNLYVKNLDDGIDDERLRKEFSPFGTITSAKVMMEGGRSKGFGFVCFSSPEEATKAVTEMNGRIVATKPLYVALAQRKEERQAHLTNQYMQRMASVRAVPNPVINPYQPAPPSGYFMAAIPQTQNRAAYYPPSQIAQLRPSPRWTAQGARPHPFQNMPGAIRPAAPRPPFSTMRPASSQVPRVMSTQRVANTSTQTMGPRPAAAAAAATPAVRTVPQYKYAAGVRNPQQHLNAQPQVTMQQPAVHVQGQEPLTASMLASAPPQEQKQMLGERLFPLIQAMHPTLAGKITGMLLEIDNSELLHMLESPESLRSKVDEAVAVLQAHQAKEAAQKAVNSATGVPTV
eIF4H FP inh retest = further read-out of eIF4H FP inh, marked with its call; inhibition, %; compound at 20 µM; confirmation average;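 mean of two retest wells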
PABP FP inh retest = second read-out of PABP FP inh, no call of its own (marks repeat the call); inhibition, %; compound at 20 µM; confirmation repeats;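 mean of two retest wells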
MT1-MMP act inh RFP = also measured in MT1-MMP act inh; calls as there; RFP signal change, %; measured here: RFP expression control read;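 0 = vehicle wells; hits needed this value within 50% of zero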
Starred values were filed as active, the others as inactive; i = inactive; ? = inconclusive; . = no result given. An excerpt; count on the stated rates, not on these rows.

A first look (four entries):
SMILES	MT1-MMP act inh	MT1-MMP act inh RFP	CSC inhib	eIF4H FP inh	UUG fidelity	HIV Env fusion	Rce1 inh	PABP FP inh	others
O=C(Nc1ccccn1)C1COc2ccccc2O1 (stereo not given)	0	2	-4	-3	-5	-56	i	-7
O=C(Nc1ccc(CSc2ccccc2)cc1)c1ccccc1	6	3	6	-3	.	7	i	4
N#Cc1ccc2ccn(CC(=O)NCc3ccco3)c2c1	0	-4	6	5	-10	-31	i	-4
CCOC(=O)C(NC(=O)NCc1ccccc1)(OCC)C(F)(F)F (stereo not given)	-1	3	0	-8	.	.	i	-5

All compounds of this part, from the first entry:
SMILES	MT1-MMP act inh	MT1-MMP act inh RFP	CSC inhib	eIF4H FP inh	UUG fidelity	HIV Env fusion	Rce1 inh	PABP FP inh	others
O=C(Nc1ccccn1)C1COc2ccccc2O1 (stereo not given)	0	2	-4	-3	-5	-56	i	-7
O=C(Nc1ccc(CSc2ccccc2)cc1)c1ccccc1	6	3	6	-3	.	7	i	4
N#Cc1ccc2ccn(CC(=O)NCc3ccco3)c2c1	0	-4	6	5	-10	-31	i	-4
CCOC(=O)C(NC(=O)NCc1ccccc1)(OCC)C(F)(F)F (stereo not given)	-1	3	0	-8	.	.	i	-5
CCOc1ccc(Nc2cc(Nc3ccccc3OCC)nc(C=C(C#N)C#N)n2)cc1	1	-1	-19	-4	-4	12	i	56*	eIF4H FP inh retest=21;PABP FP inh retest=52*
COc1ccccc1CNS(=O)(=O)CC12CCC(CC1=O)C2(C)C (stereo not given)	-1	-4	.	9	3	6	i	4
O=C(NCCS(=O)c1ccc(Cl)cc1)c1cccc(Cl)c1 (stereo not given)	5	4	-4	-9	.	-3	i	-12
Cc1ccc(NC(=O)c2cc(S(=O)(=O)N3CCCCC3)c[nH]2)cc1Cl	2	1	.	.	-14	9	.	.
Cc1sc2nc(C(C)(C)C)oc(=O)c2c1C	1	5	.	4	-6	.	i	-3
O=C(N/N=C/c1ccoc1)c1ccccc1F	0	6	7	14	-12	-39	i	6
Cc1c(Br)cnn1C(C)C(=O)N1CCN(c2ccccc2F)CC1 (stereo not given)	3	-1	.	.	18	1	.	.
CNC(=O)c1c(NC(=O)CCS(=O)(=O)c2ccc(Cl)cc2)sc2c1CCN(C(=O)OC)C2	1	3	0	.	-4	.	i	.
CCOC(=O)c1cnc2ccc(C(=O)OC)cc2c1NCCN1CCOCC1	-1	1	-5	15	.	.	i	8
CCOC(=O)[C@H]1[C@H]2COc3ccccc3[C@@H]2N2C(=O)c3cc(Cl)ccc3NC(=O)[C@@]12C	1	2	-24	.	-11	-159	.	.
CC(C)n1c(N2CCN(C(=O)Nc3ccc(F)cc3F)CC2)nc2ccccc21	-2	1	13	-1	-16	.	i	6
COc1ccc(NC(=O)CSc2nc3ccccc3nc2N2CCOCC2)cc1	-2	1	1	2	-10	.	i	-3
Clc1cccc(-c2ccc(-c3nc4ccccn4c3NCc3ccccc3)cc2)c1	11	-25	.	.	-22	-74	.	.
Cc1ccccc1N(C(=O)Cc1cccs1)C(C(=O)NC1CCCCC1)c1cn(C)nc1C (stereo not given)	-1	2	6	-13	-4	22	i	-8
O=C(Nc1cccc2ncccc12)c1ccc(-c2ccc(Cl)cc2Cl)o1	.	.	18	-5	-17	-10	i	1
CCOc1ccc(CCNC(=O)COC(=O)CNC(=O)c2ccc(Br)o2)cc1OCC	0	1	-11	.	.	-16	i	.
CCCOc1cccc(C(=O)NC(=S)Nc2ccc(N3CCN(C)CC3)cc2)c1	1	-4	-12	-7	.	-10	i	-6
CC(C)(C)NC(=O)CC1C[C@H](C(=O)N2CCCCC2)[C@@]2(C)c3[nH]c4ccccc4c3CCN2C1=O (stereo not given in full)	1	1	.	.	-5	-19	.	.
O=C(NCCCNC(=O)c1ccco1)c1cccc(F)c1	2	5	3	3	-17	12	i	7
Cc1nnc(NC(=O)CCN2C(=O)C3CC=CCC3C2=O)s1 (stereo not given)	-2	5	.	.	-23	-7	.	.
COc1ccc(Cl)cc1NC(=S)NNC(=O)c1cccs1	2	-2	10	2	.	2	i	-1
Next section
SMILES	MT1-MMP act inh	MT1-MMP act inh RFP	CSC inhib	eIF4H FP inh	UUG fidelity	HIV Env fusion	Rce1 inh	PABP FP inh	others
COc1cc(/C=N/S(=O)(=O)c2ccccc2)cc(OC)c1O	1	3	-2	-4	-10	4	i	-2
CC(C)CC(=O)Nc1ccc2c(c1)nc(CCN1CCOCC1)n2C	4	5	-4	-5	.	11	i	-17
COCCn1c(N)c(C(=O)NCC2CCCO2)c2nc3ccccc3nc21 (stereo not given)	-10	-6	4	10	6	-5	i	4
CCCOc1ccc(-c2cc(C(=O)NCC3CCCO3)c3ccccc3n2)cc1 (stereo not given)	0	0	-13	-2	1	-5	i	8
N#CC(C#N)=c1ccc2c(c1)N1C3=C(CCCC3)CC3CCCCC31N=2 (stereo not given)	-157	-6	19	9	4	.	i	6
O=C(NCC1CCN(Cc2ccc(Cl)cc2)CC1)C1CCCN(c2ncnc3c2nc2n3CCCCC2)C1 (stereo not given)	-1	-23	29	-2	-10	0	i	-4
COCCCNC(=O)/C(C#N)=C/c1c(N2CCN(c3ccccc3)CC2)nc2c(C)cccn2c1=O	-7	1	-4	?	-8	9	i	?
CCOC(=O)c1cccc(N2C(=O)C3C4C=CC(CC4)C3C2=O)c1 (stereo not given)	2	1	-5	4	-14	6	i	0
COc1ccc(-c2nc(CSCC(=O)NCCCN3CCCC3=O)c(C)o2)cc1OC	2	5	0	-12	.	-1	i	0
CN1CCN(c2ccc(S(=O)(=O)N3CCCCC3)cc2NC(=O)/C=C/c2ccc(OC(F)F)cc2)CC1	0	-4	-19	.	-4	-7	i	.
CCCCCCNc1c([N+](=O)[O-])c(=O)sc2ccccc12	-8	-18	11	-2	.	4	i	1
COc1ccc(C(=O)Oc2ccc(=O)n(-c3ccccc3)n2)cc1	-1	-4	-9	-8	-23	-35	i	1
COc1ccc(CNC(=O)CCC(=O)N2CCN(S(=O)(=O)c3cc([N+](=O)[O-])ccc3C)CC2)cc1	-2	-5	.	.	-5	0	.	.
Cc1nn(-c2ccccc2)c(Cl)c1C(=O)NCCCCNC(=O)c1c(C)nn(-c2ccccc2)c1Cl	-6	-2	-17	1	-2	.	i	-6
Cc1c(NC(=O)CN2CCC(C(N)=O)CC2)cccc1[N+](=O)[O-]	-4	1	2	4	.	-16	.	-8
O=C(Nc1ccc(S(=O)(=O)Nc2cnc3ccccc3n2)cc1)c1ccc(F)cc1	6	-19	-9	.	-7	8	i	.
O=C(Nc1nnc(C2=COCCO2)o1)c1ccc(Cl)cc1	5	7	1	-12	.	1	i	-3
COCCNC(=O)c1onc(CSc2ccc(C)c(C)c2)c1C(=O)O	4	3	2	-13	-5	2	i	-14
O=C(Cn1cccn1)N1CCCC(N2CCN(c3ccccc3F)CC2)C1 (stereo not given)	-6	-3	-7	-11	-7	-6	i	-11
CC(=O)Nc1cccc(NC(=O)COc2nncc3ccccc23)c1	6	-5	-3	-9	.	.	i	4
O=S(=O)(NCCN1CCOCC1)c1ccc(Cl)s1	0	-1	-6	-11	8	29	i	0
CCNc1nc(NCC)n2c(SCC(=O)Nc3ccc(Br)cc3F)nnc2n1	4	-4	-18	.	-20	-3	i	.
COC(=O)c1ccc(C2NC(=S)N(c3ccccc3)C(C)=C2C(=O)Nc2ccccc2OC)cc1 (stereo not given)	-3	-1	-10	0	-20	-68	i	11
N#CCSc1nnc2ccc3ccccc3n12	0	5	1	-4	-20	.	i	8
O=C(CCC1CCCN(C(=O)C2CCCC2)C1)NCc1ccc(F)c(F)c1 (stereo not given)	-7	1	-12	-5	.	12	i	8
New compounds follow.
SMILES	MT1-MMP act inh	MT1-MMP act inh RFP	CSC inhib	eIF4H FP inh	UUG fidelity	HIV Env fusion	Rce1 inh	PABP FP inh	others
S=C(c1cn(CCOc2ccccc2)c2ccccc12)N1CCCC1	-12	-16	-2	5	-29	35	i	21
COc1ccc(N2C(=O)CC(c3ccc([N+](=O)[O-])cc3)C2=O)cc1 (stereo not given)	2	4	.	4	-8	14	i	-6
O=C(NC12CC3CC(CC(C3)C1)C2)c1ccc(-c2ccc(Br)cc2)o1	-1	-6	6	-10	.	.	i	-1
CCCS(=O)(=O)c1nc(S(=O)(=O)c2ccc(C)cc2)c(N2CCC(C)CC2)s1	-3	-6	-19	2	2	8	i	3
Cc1ccc(-c2nnn(CC(=O)N(CCO)C(C(=O)NC(C)(C)C)c3ccncc3)n2)cc1 (stereo not given)	16	-1	-9	-5	6	.	i	4
Cc1ccc(S(=O)(=O)N(C)C)cc1NC(=O)COC(=O)CCC1CCCCC1	2	1	-3	.	.	-37	i	.
CCOC(=O)c1c(N/N=C/c2ccncc2)n[nH]c1C	2	3	0	5	.	19	i	-1
O=C(N/N=C/c1cc([N+](=O)[O-])ccc1N1CCNCC1)c1ccc([N+](=O)[O-])cc1	-14	-29	-18	-3	-7	25	i	-3
Cc1ccc(CNC(=O)C2CCN(S(=O)(=O)c3c(C)noc3C)CC2)cc1	-1	-1	-4	4	-18	-63	i	-2
COc1ccc(Cl)cc1C(=O)Nc1ccccc1N1CCN(C(=O)C(C)C)CC1	-10	-10	-8	7	4	13	i	1
O=C1c2ccccc2NC(c2ccccc2O)N1O (stereo not given)	0	1	0	-5	9	8	i	-4
CN(C)C(=S)SCCn1c(N)nc(N(C)C)nc1=O	-1	2	-7	-3	.	-5	i	-3
Cn1nnc2cc(NC(=O)Nc3cccc(Cl)c3)ccc21	-5	1	-3	-7	-29	-38	i	1
CN1C[C@@H]2[C@@H]3C(=O)N(C)C(=O)[C@@H]3[C@](C)(C1=O)N2C(=O)c1ccc(F)cc1	-2	3	.	.	-4	1	.	.
Cc1c(C(=O)Nc2ccc3c(c2)OCO3)oc2ccccc12	-3	-3	33	-4	-16	-64	i	5
COc1cccc(NC(=O)N2CCCC2C(=O)NCc2ccccc2)c1 (stereo not given)	0	2	-6	4	-17	6	i	3
CCC(C(=O)Nc1ccc(S(=O)(=O)Nc2ncccn2)cc1)c1ccccc1 (stereo not given)	1	5	-13	-4	11	4	i	4
CN(C)S(=O)(=O)N1CCN(c2ccc([N+](=O)[O-])c(N3CCCCC3)c2)CC1	4	4	25	-2	.	-5	i	-4
Cc1cc(-c2nn(-c3ccccc3F)cc2CNCCc2cnccn2)c(C)s1	1	3	2	2	-3	16	i	-6
OCCC1CN(Cc2cn[nH]c2C2CCCCC2)CCN1C1CCCCC1 (stereo not given)	0	4	-7	-8	-2	-2	i	-14
O=C1/C(=C\c2ccc(O)c(O)c2)C(c2ccccc2)=NN1c1ccccc1	5	-11	.	90	-17	5	i	41*	eIF4H FP inh retest=-4;PABP FP inh retest=96*
CCN(CC)CCNC(=O)c1cn(CC)c2cc(N3CCN(C)CC3)c(F)cc2c1=O	4	4	-17	-4	-12	3	i	39
O=C(N/N=C/c1ccccc1[N+](=O)[O-])c1ccncc1	-1	-3	0	0	-2	3	i	-12
Cc1ccc(NC(=O)NC2CCCc3ccccc32)cc1 (stereo not given)	-2	-3	3	-3	-6	-6	i	-7
COc1ccc(/C=N/S(=O)(=O)CCc2ccccc2)c(OC)c1	9	9	4	9	-15	-41	i	0
Cc1cc(C)c(NC(=O)CN2C(=O)NC(CCc3ccccc3)C2=O)c(C)c1 (stereo not given)	5	3	9	3	-10	12	i	-4
COCC1CCN(C(=O)C2CCN(c3nc(-c4ccccc4)nc4c3CCC4)CC2)C1 (stereo not given)	-4	-1	-8	4	2	13	i	51	eIF4H FP inh retest=1;PABP FP inh retest=0
